# MT1-MMP act inh – blockers of MT1-MMP proenzyme processing, primary screen, HT1080 RFP-PRO-GFP cells, GFP/RFP fluorescence | Matrix metalloproteinase-14 (Homo sapiens), P50281 | GFP/RFP ratio fluorescence, overnight; percent of plate control window, DMSO zero | GFP/RFP ratio change, % at 20 µM | 360,000 tested, 0.061% active | AID 651647, 2012;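 active means GFP/RFP ratio change of at least 30% with cell ATP level not reduced by more than half and red fluorescence within 50% of control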; further: strong numbers were not always called active
#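 Read-out: GFP/RFP fluorescence ratio; Test system: RFP-PRO-GFP reporter HT1080 cells; Compound dosing: single-point 20 µM compound, 1% DMSO; Times: overnight compound exposure at 37 °C.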
# Env fusion inh – inhibitors of HIV-1 Env-driven cell-cell fusion, primary screen, HeLa-JRFL effector, CEM21 target cells, luciferase; 360,000 tested, 1.1% active; inhibition, % at 12.3 µM; AID 651610, 2012;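 active means mean replicate inhibition score of at least 50 and every replicate individually at or above 50; inconclusive means only one of the two criteria met; inactive means mean below 50 and not all replicates reaching 50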;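 further: 0% = plate neutral controls and 100% = maraviroc near 300 nM; one replicate is shown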
# MT1-MMP act inh RFP – second read-out of MT1-MMP act inh, no call of its own (marks repeat the call); RFP signal change, %; measured here: RFP expression control read;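 0 = vehicle wells; hits needed this value within 50% of zero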
# * hit, by the source's call; ? = inconclusive; & = joins results of further samples. These rows are one share of the data (hit frequency here may not be typical).
MT1-MMP act inh | MT1-MMP act inh RFP | SMILES | Env fusion inh
6 | 7 | Cc1cccc(C)c1-n1nnnc1C1(C)CCC(=O)N1Cc1cccnc1 (stereo unspecified) | -3
1 | 3 | C1=NN(c2ccccc2)C=NN1c1ccccc1 | -51
-3 | 3 | CN1CCC(C(=O)C(=O)O)C1=O (stereo unspecified) | -6
8 | -2 | CC(C)C[C@H]1CN([C@@H](Cc2ccccc2)CN2CCC[C@H]2CN2C(=O)C(=O)NC[C@@H]2Cc2ccccc2)C(=O)C(=O)N1CCc1ccccc1 | -15
-1 | 3 | CC1(C(=O)NS(=O)(=O)c2ccc(C#N)cc2)CCN1C(=O)c1ccc(C2CCCCC2)cc1 (stereo unspecified) | -6
3 | 0 | CC1=C(C(=O)O)CC(S(=O)(=O)O)C1(C)C (stereo unspecified) | 12
3 | 6 | O=C(COC(=O)Cc1ccsc1)Nc1ccc(Cl)cc1F | -8
1 | -5 | O=C(NC1CCCCCCC1O)c1ccccc1 (stereo unspecified) | 22
0 | 2 | O=C(CSc1nnc(Nc2ccccc2F)s1)NCC1CCCO1 (stereo unspecified) | 2
-8 | -13 | COc1ccc(C(C#N)=C2C=C(Cl)C(=NO)C=C2Cl)cc1 | -1
-3 | 6 | CC12CCC(=O)N1C(C(=O)Nc1nccs1)CS2 (stereo unspecified) | -6
5 | -7 | Cc1ccc2nc(C3CCCCC3)c(Cc3ccsc3)n2c1 | -12
-2 | -1 | Cc1cc(C)n2c(NCc3ccccc3)c(CCc3ccccc3)nc2n1 | -24
6 | 7 | CC1(C(=O)Nc2ccc3c(c2)OCCO3)CN(S(C)(=O)=O)CC(=O)N1Cc1cccc(F)c1 (stereo unspecified) | 16
4&1 | -7&-9 | COC(=O)C1(C(=O)OC)C[C@H](c2ccc(OC)cc2)N(Cc2ccccc2OC)[C@@H]1c1cccs1 | 92*
4 | -4 | CCOC(=O)[C@]12CCCC=C1N(Cc1ccccc1)C(=O)[C@H](CC(=O)NCc1cccc(C(F)(F)F)c1)C2 | ?
-1 | 46 | O=C1NC(=S)SC1=Cc1cc(Br)ccc1O | 4
-2 | -11 | CC1=C(C(=O)N2CCCCCC2)CC(CC(=O)NCc2cccc3ccccc23)C(=O)N1CCC1=CCCCC1 (stereo unspecified) | -1
1 | 1 | COc1ccc(OC)c(N2C(=O)c3ccccc3C2c2nnnn2-c2ccc3c(c2)OCCO3)c1 (stereo unspecified) | -55
-2 | -2 | CCCCOCCCNC(=O)C[C@@H]1C[C@@]2(C(=O)OC)CC(C)(C)CC=C2N(Cc2ccco2)C1=O | 13
-8 | -2 | COC1CC(C)C(OC)c2cc(O)cc(c2O)NC(=O)C(C)=CC=CC(C)C(OC(N)=O)C(C)=CC(C)C1OC (stereo unspecified) | -48
0 | -3 | O=C(NCCOc1ccc(F)cc1)C1CCC(=O)N(Cc2ccc(Cl)cc2)C1 (stereo unspecified) | 23
4 | 5 | CC1(C2CC2)NC(=O)N(CC(=O)Nc2ccccc2C#N)C1=O (stereo unspecified) | 2
1 | 3 | CC1(N=Cc2cc(Cl)ccc2O)COP(=O)(NC2CCCC2)OC1 (stereo unspecified) | -16
9 | -5 | COc1cccc(C=NNc2nnc(NN=Cc3cccc(OC)c3OC)c3ccccc23)c1OC | -321

# Copied from above, 2 compounds:
MT1-MMP act inh | MT1-MMP act inh RFP | SMILES | Env fusion inh
6 | 7 | Cc1cccc(C)c1-n1nnnc1C1(C)CCC(=O)N1Cc1cccnc1 (stereo unspecified) | -3
1 | 3 | C1=NN(c2ccccc2)C=NN1c1ccccc1 | -51

# Going on with the list.
MT1-MMP act inh | MT1-MMP act inh RFP | SMILES | Env fusion inh
-8 | -3 | CC(=O)C1=C(O)C(CSCc2ccccc2)N(C)C1=O (stereo unspecified) | -4
-4 | -4 | O=C1C2CC3N1CCC31c3ccccc3-n3c1c2ccc3=O (stereo unspecified) | 24
1 | 0 | COc1ccc(C=O)c(-c2c(CCO)sc3ccccc23)c1 | -6
3 | 0 | CCCCCCCCN1C(=O)[C@H](CC(=O)NCCCN2CCCC2=O)C[C@@]2(C(=O)OC)CC(C)(C)CC=C12 | -3
9 | 3 | O=C1C(=Cc2ccc(Cl)cc2)Cc2ccccc21 | -95
-7 | 1 | COC(=O)C1=CCCCC(O)=C1C(=O)OC | 6
-2 | -4 | COC(=O)[C@]12CCCCC=C1N(Cc1ccco1)C(=O)[C@H](CC(=O)NCc1cccc3ccccc13)C2 | 5
1 | 4 | O=C1C2C3CC4C5C3C1C5C1(SCCS1)C42 (stereo unspecified) | -26
2 | 6 | COc1ccc(C)cc1NC(=O)ON=C1CCCCC1 | 2
-3 | 2 | Nc1[nH]c(C(=O)c2ccccc2)c(-c2cccnc2)c1C(=O)NC1CCCCC1 | 23
-16 | -23 | CCCCn1nnnc1C(c1ccccc1)N1CCN(c2cc(C)ccc2C)CC1 (stereo unspecified) | 32
-3 | -3 | Nc1ccn([C@@H]2O[C@H](CNC(=O)[C@H]3CCC(=O)N3)[C@@H](O)[C@H]2O)c(=O)n1 | 26
2 | 0 | Cc1cnc(-c2nc3ccccc3n2C(C(=O)NC(C)(C)C)c2ccncc2)cn1 (stereo unspecified) | -34
1 | 7 | CCOC(=O)C1(C(=O)OCC)NC(=O)CC1CC (stereo unspecified) | -80
9 | -27 | CCc1c(-c2ccc(Br)cc2)ncn1Cc1cccc(-c2ccccc2)c1 | 10
-9 | -14 | CCCCCCCCN1C(=O)[C@H](CC(=O)NCc2ccc(OC)c(OC)c2)C[C@@]2(C(=O)OC)CC(C)(C)CC=C12 | 46
-6 | -3 | COc1c2c(c(OC)c3c1c(=O)c1ccccc1n3C)OCO2 | 0
0 | 0 | Cc1ccc(CSc2ccc(S(=O)(=O)N3CCCCC3)cn2)cc1 | 22
1 | -5 | CCCCCCCCCCCCCCCCCCNc1ccn(C2OC(COP(=O)(O)OCC3OC(n4cc(F)c(=O)[nH]c4=O)CC3O)C(O)C2O)c(=O)n1 (stereo unspecified) | 21
7 | -6 | O=C(NCCN1CCC(n2c(=O)[nH]c3ccccc32)CC1)c1ccc(Cl)cc1Cl | 23
0 | 2 | CC1(Oc2cccnc2Cl)CCN(Cc2ccc(OC(F)(F)F)cc2)C1 (stereo unspecified) | 12
5 | -3 | Nc1ccc(S(=O)(=O)Nc2nc(-c3ccccc3)cc(-c3ccccc3O)n2)cc1 | -4
6 | 7 | CC(=O)Nc1cccc(-c2nc3ccccc3n2C(C(=O)NC(C)(C)C)C2CC2)c1 (stereo unspecified) | -13
-3 | -2 | CC(C)CN(C(=O)CCC1CCCCC1)c1c(N)n(CC(C)C)c(=O)[nH]c1=O | 26
-4 | -23 | Cc1ccc(/C=C2/CNC/C(=C/c3ccc(C)cc3)C2=O)cc1 | 66*

# Carrying on:
MT1-MMP act inh | MT1-MMP act inh RFP | SMILES | Env fusion inh
3 | 5 | Cc1cc(C)n2c(Nc3ccc4c(c3)OCCO4)c(C3CC3)nc2n1 | -27
-1 | 1 | O=C(NCCCCCCCN1CCCCCCC1)C(C1CCCCC1)C1CCCCC1 | 29
-9 | -7 | Cn1cncc1C#Cc1ccc(N2C(c3ccsc3)=Cc3ccc(F)cc3C2c2c[nH]c3ccccc23)cc1 (stereo unspecified) | 8
2 | -2 | Cc1cccc(C)c1NC(=O)C(c1ccnc2ccccc12)N1CCN(CCN(C)C)CC1 (stereo unspecified) | -8
-5 | -13 | CCOC(=O)N1CCN(C(=O)C[C@@H]2C[C@@]3(C(=O)OC)CC(C)(C)CC=C3N(Cc3cccc4ccccc34)C2=O)CC1 | -4
-4 | -3 | O=C(NCC1CCCO1)c1cc(-c2ccncc2)nc2ccccc12 (stereo unspecified) | -81
0 | 1 | Cc1cc(N2CCN(C(C(=O)NC3CCCC3)C(C)(C)C)CC2)c2ccccc2n1 (stereo unspecified) | -34
5 | 1 | CCCCCCn1cc(CN2CC(N3CCCCC3)CS2(=O)=O)nn1 (stereo unspecified) | 31
4 | -2 | c1cc2c3c(cccc3c1)NN=N2 | 22
-2 | 3 | C[C@H]1CN([C@@H](C)CO)C(=O)CCCn2cc(nn2)CO[C@@H]1CN(C)S(=O)(=O)c1ccccc1C#N | -210
-3 | 2 | CCN1C(=O)CC(SC2CC(=O)N(CC)C2=O)C1=O (stereo unspecified) | 9
-6 | -10 | COC(=O)[C@@]12C[C@@H](CC(=O)N3CCC(c4ccccc4)CC3)C(=O)N(CCc3ccc(OC)c(OC)c3)C1=CCC(C)(C)C2 | -1
-3 | -1 | COc1ccc(C(=O)N(c2c(C)cccc2C)C(COC(C)=O)COC(C)=O)cc1 | 4
4 | 4 | O=C(Nc1ccc(C(=O)N2CCN(c3ccncc3)CC2)cc1)c1ccc(Br)o1 | 5
1 | -1 | Cc1ccc(S(=O)(=O)N2[C@@H](CO)CO[C@H]2CC(=O)c2ccc(F)cc2)cc1 | 6
2 | 6 | Cc1ccc(CN2C(=O)CCC2(C)c2nnnn2-c2ccc3c(c2)OCCO3)cc1 (stereo unspecified) | 36
4 | 3 | CCCCn1nnnc1C1(C)CCC(=O)N1CCc1c[nH]c2ccccc12 (stereo unspecified) | -11
9 | 7 | CCCC[C@@H]1CNC(=O)C(=O)N1CCCC | -41
-3 | 0 | Cc1cccc2c1CCCC2=O | -16
-1 | 4 | Cc1cccc(C)c1NC(=O)C1(C)CSCC(=O)N1CCC(C)C (stereo unspecified) | 12
-2 | -1 | COc1ccc(NC(=O)C(c2cc3ccccc3o2)n2c(=O)c(-c3cc4ccccc4[nH]3)nc3ccccc32)cc1 (stereo unspecified) | -8
-3 | 0 | O=c1cc(Br)c(O)c(Br)cc1Br | 3
9 | -2 | Cc1ccc(CS(=O)Cc2ccc(C(=O)N3CCN(c4cccc(C)c4C)CC3)o2)cc1 (stereo unspecified) | 30
-5 | -2 | CCOc1ccc(NS(=O)(=O)c2cccc(C(=O)NCC3(N(C)C)CCCCC3)c2)cc1 | -16
0 | 1 | O=C(Nc1ccccc1C(=O)Nc1nccs1)c1ccccc1 | -22
1 | 5 | O=S(=O)(CC(O)(c1ccccc1)c1ccccc1)CC(O)(c1ccccc1)c1ccccc1 | -1
-1 | -8 | COc1cccc(C(C(=O)NCc2ccccc2)N2CCN(c3cccc(C)c3C)CC2)c1OC (stereo unspecified) | 14
-3 | -3 | COC(=O)c1ccc2nc(-c3ccc(C#N)cc3)c(Cc3ccsc3)n2c1 | -20

# Molecules above that contain sulfur:
MT1-MMP act inh | MT1-MMP act inh RFP | SMILES | Env fusion inh
-1 | 3 | CC1(C(=O)NS(=O)(=O)c2ccc(C#N)cc2)CCN1C(=O)c1ccc(C2CCCCC2)cc1 (stereo unspecified) | -6
3 | 0 | CC1=C(C(=O)O)CC(S(=O)(=O)O)C1(C)C (stereo unspecified) | 12
3 | 6 | O=C(COC(=O)Cc1ccsc1)Nc1ccc(Cl)cc1F | -8
0 | 2 | O=C(CSc1nnc(Nc2ccccc2F)s1)NCC1CCCO1 (stereo unspecified) | 2
-3 | 6 | CC12CCC(=O)N1C(C(=O)Nc1nccs1)CS2 (stereo unspecified) | -6
5 | -7 | Cc1ccc2nc(C3CCCCC3)c(Cc3ccsc3)n2c1 | -12
6 | 7 | CC1(C(=O)Nc2ccc3c(c2)OCCO3)CN(S(C)(=O)=O)CC(=O)N1Cc1cccc(F)c1 (stereo unspecified) | 16
4&1 | -7&-9 | COC(=O)C1(C(=O)OC)C[C@H](c2ccc(OC)cc2)N(Cc2ccccc2OC)[C@@H]1c1cccs1 | 92*
-1 | 46 | O=C1NC(=S)SC1=Cc1cc(Br)ccc1O | 4
-8 | -3 | CC(=O)C1=C(O)C(CSCc2ccccc2)N(C)C1=O (stereo unspecified) | -4
1 | 0 | COc1ccc(C=O)c(-c2c(CCO)sc3ccccc23)c1 | -6
1 | 4 | O=C1C2C3CC4C5C3C1C5C1(SCCS1)C42 (stereo unspecified) | -26
0 | 0 | Cc1ccc(CSc2ccc(S(=O)(=O)N3CCCCC3)cn2)cc1 | 22
5 | -3 | Nc1ccc(S(=O)(=O)Nc2nc(-c3ccccc3)cc(-c3ccccc3O)n2)cc1 | -4
-9 | -7 | Cn1cncc1C#Cc1ccc(N2C(c3ccsc3)=Cc3ccc(F)cc3C2c2c[nH]c3ccccc23)cc1 (stereo unspecified) | 8
5 | 1 | CCCCCCn1cc(CN2CC(N3CCCCC3)CS2(=O)=O)nn1 (stereo unspecified) | 31
-2 | 3 | C[C@H]1CN([C@@H](C)CO)C(=O)CCCn2cc(nn2)CO[C@@H]1CN(C)S(=O)(=O)c1ccccc1C#N | -210
-3 | 2 | CCN1C(=O)CC(SC2CC(=O)N(CC)C2=O)C1=O (stereo unspecified) | 9
1 | -1 | Cc1ccc(S(=O)(=O)N2[C@@H](CO)CO[C@H]2CC(=O)c2ccc(F)cc2)cc1 | 6
-1 | 4 | Cc1cccc(C)c1NC(=O)C1(C)CSCC(=O)N1CCC(C)C (stereo unspecified) | 12
9 | -2 | Cc1ccc(CS(=O)Cc2ccc(C(=O)N3CCN(c4cccc(C)c4C)CC3)o2)cc1 (stereo unspecified) | 30
-5 | -2 | CCOc1ccc(NS(=O)(=O)c2cccc(C(=O)NCC3(N(C)C)CCCCC3)c2)cc1 | -16
0 | 1 | O=C(Nc1ccccc1C(=O)Nc1nccs1)c1ccccc1 | -22
1 | 5 | O=S(=O)(CC(O)(c1ccccc1)c1ccccc1)CC(O)(c1ccccc1)c1ccccc1 | -1
-3 | -3 | COC(=O)c1ccc2nc(-c3ccc(C#N)cc3)c(Cc3ccsc3)n2c1 | -20

# Assay outcomes (PubChem BioAssay)
